# Vaccinia Venus: inhibitors of vaccinia virus (Venus reporter) | Vaccinia virus Venus reporter expression, fluorescence | Potency, µM (top dose mostly 36.5 µM), for inactives: at the top dose activity change, negative = inhibition, hits mostly inhibitors | hit rate 0.46% among 330,000; active means well fitted inhibition curve with a large enough effect; inconclusive means small, poorly fitted or top-dose-only effect; inactive means no such curve, though single readings can be large or run the other way; tested in A549 cells; also: nearly all actives have a fitted effect of over 30% in size; inactives centre near -10
# Vaccinia mCherry: inhibitors of vaccinia virus infection (mCherry reporter signal). Potency, µM (series often up to 36.5 µM), inactives show top-dose activity change, negative = inhibition, usual class: inhibitors. Vaccinia virus mCherry reporter infection, fluorescence; about a quarter of the inactives have no number. AID 720579. hit rate 0.63% among 310,000; active = well fitted inhibition curve with a large enough effect; inconclusive = small, poorly fitted or top-dose-only effect; inactive = no such curve, though single readings can be large or run the other way; tested in A549 cells; also: nearly all actives have a fitted effect of over 35% in size; inactives centre near -10
# Starred values were filed as active, the others as inactive; i = inactive; ? = inconclusive; . = no result given; & = joins results of further samples; [ ] = remark or other dose. % is scaled to controls: 0 for no effect and ±100 for the full control effect; potency is read from the fitted curve at half-maximal effect.
# Second line of a record: Vaccinia Venus	Vaccinia mCherry
- COc1ccccc1-n1cc([C@@H]2C[C@H]3CN(c4ccccc4)C(=O)[C@]34CCCN24)cn1
    -16%	-17%
- CCOC(=O)c1c2c([nH]c(=S)c1C#N)CCCC2
    -7%	-4%
- COc1ccc(C2c3cc(OC)c(OC)cc3CCN2S(C)(=O)=O)cc1OC (configuration not stated)
    1%	i
- N#Cc1c(NC(=O)C2CCCO2)sc2c1CCCCCC2 (configuration not stated)
    5%	-2%
- c1cncc(N=c2scc(-c3cccc4ccccc34)n2CCCn2ccnc2)c1
    -14%	-14%
- COc1cc(OC)c2c3c(c(C4CCCCC4)nc2c1)CCCC3
    0%	i
- COc1cccc(CNCCNC(=O)c2nonc2N)c1
    6%	5%
- Cc1cccc(CN2CCc3c(OCC(=O)NCc4ccco4)cccc3C2=O)c1
    -7%	-21%
- Cc1ccc(S(=O)(=O)N2CCC3(CC2)OCCO3)cc1
    -6%	-1%
- COc1ccc(OC)c(Nc2ncnc3c2cnn3-c2cccc(Cl)c2)c1
    -20%	-15%
- C=CCNC(=S)Nc1ccc(Cl)cc1
    -10%	-8%
- CCC(CC)C(=O)NC1CCSC1=O (configuration not stated)
    -15%	.
- CCN(CC)c1nc(-c2ccccc2)nc2c1sc(=S)n2CC
    8%	i
- COc1ccc(C(=O)NC(C)CCc2ccccc2)cc1 (configuration not stated)
    -11%	i
- N#Cc1cn(-c2ccccc2)nc1C(=O)c1ccccc1
    ?	.
- O=C(c1c(F)cccc1Cl)N1CCN(S(=O)(=O)c2ccc3c(c2)OCCCO3)CC1
    -22%	-3%
- COc1ccc(NC(=O)c2ccco2)c(OC)c1
    -16%	.
- Cc1ccc2nc(NC(=O)c3ccc(Cn4cc(Cl)cn4)o3)sc2c1
    -28%	?
- Cc1ccc(-c2cc(C(=O)N/N=C/c3ccccc3)n[nH]2)o1
    0%	i
- O=C(N/N=C/c1ccc[nH]1)c1ccccc1[N+](=O)[O-]
    -7%	-15%
- Cc1nc2ccc(S(=O)(=O)NC(C(=O)N3CCCC3)C(C)C)cc2s1 (configuration not stated)
    -3%	i
- CCCN(Cc1cccs1)C(=O)Nc1cc(Cl)ccc1C
    -6%	-4%
- COc1ccc(NC(=O)CC2Oc3ccccc3NC2=O)cc1 (configuration not stated)
    -12%	i
- COc1ccc2nc(N(CCN(C)C)C(=O)c3ccc4ncsc4c3)sc2c1
    -7%	0%
- Cc1ccc2c(=O)cc(C(=O)Nc3ccc(S(=O)(=O)N(C)c4ccccc4)cc3)oc2c1C
    ?	?
- COc1ccccc1CCc1nnc(CCC(=O)NC(C)Cc2ccsc2)o1 (configuration not stated)
    1.8µM*	1.1µM*
- CCOc1cccc(-c2nnc3sc(COc4ccc(Cl)cc4)nn23)c1
    -6%	.
- C=CCN(c1ccccc1OC)S(=O)(=O)c1ccc(Cl)c(C(=O)NCc2ccco2)c1
    -21%	-15%
- CSc1nnc(-c2ccccc2N=Cc2c(C)[nH]n(-c3ccccc3)c2=O)c(=O)[nH]1
    -13%	.
- O=C(COC(=O)c1ccc2c(c1)OCCO2)Nc1cc(Cl)ccc1Cl
    -3%	-22%
- COc1cccc(CCNC(=O)c2cc(COc3cccc(OC)c3)on2)c1
    -25%	-16%
- CCOC(=O)c1cccc(NC(=O)[C@H](CSCc2ccccc2)N2Cc3ccccc3C2=O)c1
    -13%	-17%
- COc1ccc(NC2CCCN(C(=O)c3ccc(CSC)o3)C2)cc1OC (configuration not stated)
    -4%	?
- Cc1ccc(F)cc1NC(=O)Cc1nn(C)c(=O)c2ccccc12
    ?	.
- Cc1cccc(/C=N\Nc2nnc(-c3ccccc3)c(=O)[nH]2)c1
    -4%	-8%
- CCc1c(C)nc(SCC(=O)Nc2nc(-c3ccc(OC)cc3)cs2)[nH]c1=O
    -7%	-10%
- O=C(CCCOc1ccccc1)N1CCN(S(=O)(=O)c2cccs2)CC1
    -14%	.
- COCCCn1cc(CN2CC(N3CCN(Cc4cccc(C)c4)CC3)CS2(=O)=O)nn1 (configuration not stated)
    -1%	36%[activator]
- N#Cc1ccc[n+](CC(=O)c2ccc(F)cc2)c1
    2%	-15%
- CC(C)[C@H](NC(=O)N1CCn2c1nc1ccccc12)C(=O)NCc1ccc(F)cc1
    ?	?

# Some of the entries so far, bar-delimited.
compound | Vaccinia Venus | Vaccinia mCherry
COc1ccc2nc(N(CCN(C)C)C(=O)c3ccc4ncsc4c3)sc2c1 | -7% | 0%
CCc1c(C)nc(SCC(=O)Nc2nc(-c3ccc(OC)cc3)cs2)[nH]c1=O | -7% | -10%
C=CCN(c1ccccc1OC)S(=O)(=O)c1ccc(Cl)c(C(=O)NCc2ccco2)c1 | -21% | -15%
N#Cc1ccc[n+](CC(=O)c2ccc(F)cc2)c1 | 2% | -15%

# More entries.
# Second line of a record: Vaccinia Venus	Vaccinia mCherry
- COc1ccccc1NC(=S)NNC(=O)c1ccccc1Br
    -1%	?
- COc1cc(C(=O)NCc2ccc(C(=O)NCC(OC)OC)cc2)cc(OC)c1OC
    -8%	-1%
- COC1=CC(=O)c2c(ccc3ncnc(N)c23)C1=O
    ?	?
- CCOC(=O)Cc1cc(=O)n2[nH]c(-c3ccccc3)cc2n1
    -14%	-22%
- C=CCNc1nc(Nc2ccc(OC)cc2)nc(OC)n1
    -14%	-21%
- CN(C)S(=O)(=O)c1ccc(Oc2ccccc2)cc1
    -13%	-13%
- Cc1ccc(C)c(N2CCN(c3nc4ccccc4n4nnnc34)CC2)c1
    14%	-5%
- COC(CNC(=O)c1cccc(-n2c(=S)[nH]c3cc(Cl)ccc3c2=O)c1)OC
    -15%	-17%
- Cc1cccc(OCC(=O)NCc2ccc3c(c2)CCN3C(=O)c2ccc(Cl)cc2)c1
    -25%	-1%
- NNCc1ccccc1
    -13%&-15%	i
- CCOC(=O)c1c(C)n(C)c2cc(CN(C)C)c(O)c(S(=O)(=O)c3ccccc3)c12
    -5%	-3%
- CC1(C)OC2OC(C(=O)N/N=C/c3cc(Br)ccc3O)C3OC(C)(C)OC3C2O1 (configuration not stated)
    ?	?
- O=C1CC(c2ccccc2)Cc2[nH]c(=O)c(-c3nc(-c4ccc(Cl)cc4)cs3)cc21 (configuration not stated)
    -19%[7.34 µM]	-24%[7.34 µM]
- COc1ccc(OCCn2cc(/C(N)=N/O)c3ccccc32)cc1
    12%	-10%
- O=C(Nc1c(-c2ccc3c(c2)OCO3)[nH][nH]c1=O)c1cnccn1
    16%	11%
- CCOC(=O)CSc1n[nH]c(NC(C)=O)n1
    -7%	i
- COC(=O)C1=C(c2ccccc2OCc2ccccc2)C[C@@H]2CC[C@H]1N2C(=O)NCc1ccc(Br)cc1
    ?	-18%
- COC(=O)c1c(-c2cccs2)csc1NC(=O)COc1ccc(C)cc1
    -6%	-5%
- COc1ccc(N=Cc2cc3c(cc2O)OC(N)=C(C#N)C3c2ccccc2)cc1 (configuration not stated)
    -21%	-18%
- COc1ccc(-n2nc3ccc(NS(C)(=O)=O)cc3n2)cc1Cl
    -6%	-13%

# Arranged by molecular weight (rising): three of the compounds above.
# Second line of a record: Vaccinia Venus	Vaccinia mCherry
- NNCc1ccccc1
    -13%&-15%	i
- CCOC(=O)c1c(C)n(C)c2cc(CN(C)C)c(O)c(S(=O)(=O)c3ccccc3)c12
    -5%	-3%
- CC1(C)OC2OC(C(=O)N/N=C/c3cc(Br)ccc3O)C3OC(C)(C)OC3C2O1 (configuration not stated)
    ?	?

# Next section
# Second line of a record: Vaccinia Venus	Vaccinia mCherry
- O=C(CCNS(=O)(=O)c1cccs1)N1CCN(c2ccc(F)cc2)CC1
    -6%	-13%
- Cc1cccc(NC(=S)N(CCCN2CCOCC2)Cc2cn(C)c3ccccc23)c1
    -13%	-9%
- CC(C)(C)NC(=O)C(c1ccccc1F)n1c(=O)c(-c2ccco2)nc2ccccc21 (configuration not stated)
    21%	4%
- CC(=O)c1ccc(OC2(C)CCN(Cc3ccc(OC(F)(F)F)cc3)C2)cc1 (configuration not stated)
    -8%	i
- Cc1[nH]n(-c2ccccc2)c(=O)c1N=Nc1ccc(C(=O)O)cc1
    -8%	-8%
- CCCCCCCOc1ccc(C(=O)Nc2cccnc2)cc1
    6%	-4%
- CSc1ncccc1C(=O)Nc1nc2ccc(F)cc2s1
    -7%	-12%
- CCCCc1nc2cc(C(=O)N3CCNC(=O)C3CC(=O)OC)ccc2o1 (configuration not stated)
    -9%	-12%
- O=C1CC(c2ccco2)Sc2ccccc2N1 (configuration not stated)
    -15%	-23%
- Cc1cc(C)c2nc(NNC(=O)c3ccc(S(=O)(=O)N4CCCCC4)cc3)sc2c1
    ?	?
- Cc1ccc(NS(=O)(=O)c2ccc(NC(=O)c3cccs3)cc2)cc1
    -21%	-24%
- CCOC(=O)c1c(C)c(C(=O)Nc2cc(OC)ccc2OC)c(C)n1CC
    ?	?
- O=C1CSC(=S)N1/N=C/C=C/c1ccccc1
    6%	-13%
- Cc1ccc(-n2c(=O)c3c(c4cc(C)ccc4n3C)n(CC(=O)NCc3ccccc3)c2=O)cc1
    -14%	-10%
- CCOC(=O)CC(NC(=O)Cc1ccccc1)c1ccccc1Cl (configuration not stated)
    -5%	i
- COc1ccc(CNC(=O)c2cnn(-c3ncc4c(n3)-c3ccccc3CC4)c2C)cc1OC
    -11%	-25%
- COc1ccc(OCCNC(=O)C(Cc2c[nH]c3ccccc23)NC(C)=O)cc1 (configuration not stated)
    4%	-28%
- Cc1nn(-c2ccccc2)c(C)c1/C=N/NC(=O)CSc1nnc(SCc2cccc3ccccc23)s1
    -19%	-28%
- CC(C)Oc1cccc(C(=O)NC(=S)NCc2cccnc2)c1
    -24%	-1%
- O=C(Nc1cccnc1Cl)c1cccnc1Cl
    5%	-14%
- COCc1ccc(C(=O)NC(C)c2cnn(-c3ccccc3C)c2C)o1 (configuration not stated)
    -12%	-1%
- CCN(CC(=O)Nc1cccc(OC)c1)CC(=O)Nc1ccc(C)cc1Cl
    -8%	-14%
- c1ccc(-c2cc3cc4c(cc3cn2)OCO4)cc1
    -6%	i
- O=C(NCCN1CCOCC1)c1sc2cc(Cl)ccc2c1Cl
    -10%	-14%
- COCc1cc(=O)[nH]c(/N=C(\N)Nc2ccc(C)cc2C)n1
    -12%	0%
- Cc1ccc(NC(=O)Cc2nnc(SCC(=O)Nc3ccc(N4CCOCC4)cc3)n2C)cc1
    -22%	-7%
- O=C1CN(S(=O)(=O)c2ccccc2)CCN1
    3%	-6%
- CN(C)C(=O)Oc1ccc(Cl)c2ccccc12
    -5%	-8%
- Cc1cc(C)c(C#N)c(SCc2ccccc2[N+](=O)[O-])n1
    -4%	i
- COc1cc(C(=O)OCc2cc(=O)oc3c(C)c(C)ccc23)ccc1OC(F)F
    -8%	-9%
- Cc1ccccc1Cn1cc(S(=O)(=O)c2ccc(Cl)cc2)c(=O)c2cc3c(cc21)OCO3
    1%	-8%
- CC(=O)Nc1ccc(-c2cc(C(=O)O)c3ccccc3n2)cc1
    -3%	-24%
- O=C(OCC(=O)c1ccc[nH]1)c1ccc(C(F)(F)F)cc1
    -10%	-15%
- CCOC(=O)Cn1c(=O)n(C2CCCC2)c(=O)c2ccccc21
    -16%	-6%
- COc1ccc(NC(=O)C2CCC(N3C(=O)C4CCCCC4C3=O)CC2)cc1 (configuration not stated)
    -12%	i
- CN(C)CCNc1nc(Oc2cccc(F)c2)c2sccc2n1
    -10%	-2%
- CC(OC(=O)C1CC(=O)N(Cc2ccco2)C1)C(=O)Nc1cccc(C#N)c1 (configuration not stated)
    -9%	i
- COc1ccccc1C(=O)NC(=O)COC(=O)c1cccc(OC(F)F)c1
    -11%	-13%
- Cc1c(O)c(=O)ccn1C
    -7%	-16%
- CC1CN/C(=C\C(=O)c2ccccc2)C(=O)N1 (configuration not stated)
    -28%	.
- COc1ccc(CNc2oc(COc3ccccc3)nc2C#N)cc1
    -19%	-21%
- Cn1c(=O)c2c(ncn2CCNC2=NCCCCC2)n(C)c1=O
    -6%	-8%
- O=C(CN1CCN(Cc2ccccc2)CC1)Nc1ccc2c(c1)CCC2
    -10%	-14%
- CC(=O)N1CCC(C(=O)NC2CCCc3c2cnn3-c2cc(F)cc(F)c2)CC1 (configuration not stated)
    -14%	-7%
- CCCn1nc(NS(=O)(=O)c2ccccc2)c2cc3cc(C)ccc3nc21
    -5%	i
- Cc1ccc(NC(=O)COC(=O)Cc2csc(-c3ccc(Cl)cc3)n2)cc1C
    -17%	0%
- CCOc1ccccc1NC(=O)c1cc(-c2cc(OC)c(OC)c(OC)c2)nc2ccccc12
    -10%	i
- CC1CC(N(C(=O)c2ccc(Cl)cc2)c2ccccc2)c2ccccc2N1C(=O)c1ccco1 (configuration not stated)
    ?	.
- COc1ccc(C)cc1S(=O)(=O)Nc1cc2c3c(c1)CCC(=O)N3CCC2
    -4%	8%
- COc1cc2c(cc1OC)C(=O)OC2
    -1%	-3%
- Cc1cc(N2CC(C)OC(C)C2)n2cc(-c3ccccc3)nc2n1 (configuration not stated)
    -2%	i
- Cc1nn(C)c(C)c1S(=O)(=O)NC1CCCc2ccccc21 (configuration not stated)
    ?	i
- O=C(COC(=O)C1=COCCO1)NCc1ccc(Cl)cc1
    -8%	i
- Cc1ccc(CNc2nc3ccccc3n3nnnc23)cc1
    -1%	i
- COc1cccc(C(=O)N/N=C(\C)CC(=O)Nc2ccc(N(C)C)cc2)c1
    ?	?
- Cc1ccc(-c2nc(N/N=C/c3cccnc3)c3ccccc3n2)cc1
    -9%	-7%
- CC1=C(c2ccc(C(C)C)cc2)S(=O)(=O)NC1=NCc1ccc(OC(C)C)cc1
    -5%	-14%
- CCOc1ccc(/C=C/C(=O)OC(C)C(=O)NC2CCCCC2C)cc1OC (configuration not stated)
    -15%	i

# Screening results as filed in PubChem BioAssay.
